YopH inh = inhibitors of Yersinia enterocolitica YopH tyrosine phosphatase. fluorescence Ex485/Em525. inhibition, %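 (about 10 µM by stock and volumes)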. actives 0.16% (n = 140,000). AID 898;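 active = inhibition of 50% or more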;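 note: controls were vehicle for no effect and minimum signal wells for full effect; inactives centre near -20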
Mtb bLac sens = beta-lactam sensitization of Mtb H37Rv. M. tuberculosis H37Rv growth with meropenem, percent inhibition; hits of this screen are not shown here. inhibition, % at 25 µM. actives 0.27% (n = 330,000);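 active = about 74% or more and at least 40 points above the plate without the antibiotic, then above 30% in a dose series; inconclusive = first-round hits that could not be retested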;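 note: growth measured after seven days incubation then overnight dye step; 0% = bacteria only wells and 100% = bacteria with antibiotic; twin plates without the antibiotic show which effects depend on it; some results filed as inactive read as strong as hits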
Mtb H37Rv = M. tuberculosis H37Rv growth inhibitors, H37Rv strain (AID 1626); M. tuberculosis H37Rv growth inhibition; higher % means a stronger effect; inhibition, % at 10 µM, or IC50 in µM where a hit was titrated; actives 0.95% (n = 220,000);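 active = confirmed in a dose series; inconclusive = inhibition above 80% but not taken into the dose series; inactive = below 80% or under 30% at every dose of the series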;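 note: bacteria incubated seven days before Alamar blue readout; 0% = bacteria only wells and 100% = bacteria with antibiotic wells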
Arbovirus inh = antivirals against arbovirus infection; arbovirus infection cell-based antiviral screen; inhibition, % at 10 µM; actives 0.37% (n = 200,000); AID 1251;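 active = inhibition from about 30%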;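 note: bluetongue infection of BSR cells; cell survival read as ATP light after 72 h; 0% = infected wells without compound and 100% = uninfected wells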
RecA splice inh = Mtb RecA intein splicing inhibition. P9WHJ3. cell-free RecA intein splicing, fluorescence. inhibition, %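 (about 9 µM by stock and volumes)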. actives 0.75% (n = 290,000). AID 2221; in the data active = inhibition above about 30%; inconclusive = no clear call, values can overlap the other calls;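 note: 0% = vehicle wells and 100% = reference inhibitor control wells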
Target sequence (P9WHJ3 whole entry, looked up, canonical isoform): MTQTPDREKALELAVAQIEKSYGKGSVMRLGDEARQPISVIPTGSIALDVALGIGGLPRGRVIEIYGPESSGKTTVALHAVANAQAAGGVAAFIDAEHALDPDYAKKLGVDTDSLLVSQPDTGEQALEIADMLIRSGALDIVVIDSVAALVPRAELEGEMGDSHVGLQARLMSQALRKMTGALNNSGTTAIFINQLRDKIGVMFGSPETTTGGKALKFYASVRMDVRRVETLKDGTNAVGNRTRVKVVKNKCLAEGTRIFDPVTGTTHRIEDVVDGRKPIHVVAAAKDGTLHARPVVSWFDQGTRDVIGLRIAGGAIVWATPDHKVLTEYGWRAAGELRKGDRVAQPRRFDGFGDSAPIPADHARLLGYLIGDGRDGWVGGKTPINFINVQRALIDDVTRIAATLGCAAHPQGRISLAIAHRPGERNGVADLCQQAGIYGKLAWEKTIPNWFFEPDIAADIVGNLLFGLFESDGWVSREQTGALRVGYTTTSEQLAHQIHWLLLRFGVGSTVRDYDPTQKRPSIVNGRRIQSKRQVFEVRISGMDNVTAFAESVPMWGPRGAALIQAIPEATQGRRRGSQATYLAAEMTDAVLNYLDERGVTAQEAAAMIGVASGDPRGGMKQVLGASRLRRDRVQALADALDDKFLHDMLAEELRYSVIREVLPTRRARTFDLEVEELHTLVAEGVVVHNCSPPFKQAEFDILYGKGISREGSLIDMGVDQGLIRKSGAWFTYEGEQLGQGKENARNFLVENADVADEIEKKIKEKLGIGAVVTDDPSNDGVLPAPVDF
Arbovirus inh repeat = further read-out of Arbovirus inh, marked with its call; inhibition, %; measured here: 10K subset replicate screen; many hits read low in the repeat;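 first of two repeat runs on a subset; 0% = infected and 100% = uninfected wells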
* = called active by the depositor; ? = inconclusive; . = no result given.

Start of the listing, in advance:
SMILES	YopH inh	Mtb bLac sens	Mtb H37Rv	Arbovirus inh	RecA splice inh	others
Cc1ccc(CCNC(=O)CCS(=O)(=O)c2cc3c(cc2C)NC(=O)CO3)cc1	.	-3	.	.	-2.9
Clc1ccc(OCCSCc2nc3ccccc3[nH]2)cc1	-21	7	3%	-33	7.2

This part in full, previewed entries included:
SMILES	YopH inh	Mtb bLac sens	Mtb H37Rv	Arbovirus inh	RecA splice inh	others
Cc1ccc(CCNC(=O)CCS(=O)(=O)c2cc3c(cc2C)NC(=O)CO3)cc1	.	-3	.	.	-2.9
Clc1ccc(OCCSCc2nc3ccccc3[nH]2)cc1	-21	7	3%	-33	7.2
COc1ccc(OC)c(NC(=O)Cc2ccc(NC3=NC4CS(=O)(=O)CC4S3)cc2)c1 (stereo unspecified)	.	2	.	.	38*
Cc1cccc(NC(=S)NCCO)c1C	-4	-4	-8%	-1	-1.0
Nc1ncnc2c1ncn2C1OC(COP(=O)(O)O)C(O)C1O (stereo unspecified)	.	-5	.	.	-2.4
COC(=O)c1ccc2c(c1)N(Cc1ccccc1F)C(=O)c1ccccc1S2=O (stereo unspecified)	-17	-9	-15%	1	4.9	Arbovirus inh repeat=3
CN(CCCNC(=O)CSc1cc(=O)n(C)c2ccc(Cl)cc12)Cc1ccccc1	.	-8	-3%	-22	-0.8
O=C(O)c1cc(-c2cccnc2)nn1-c1ccccn1	-7	-2	0%	-2	-0.8
CC(C)OCCCNC(=S)N1CCC(C(=O)c2ccc(Cl)cc2)CC1	.	2	.	.	0.5
CCCC(=O)N1c2ccccc2C(=C2SC(C(=O)OC)=C(C(=O)OC)S2)C(=S)C1(C)C	-7	27	-5%	-11	-4.5
CC(=O)Nc1nc2cccc([N+](=O)[O-])c2s1	.	6	3%	0	-4.4
CCc1ccc(N2CC(C(=O)NC3=NCCS3)CC2=O)cc1 (stereo unspecified)	-53	-4	-6%	3	1.0
Cc1nc2cc(NC(=O)CCS(=O)(=O)c3ccccc3)ccc2s1	-18	-7	0%	-8	0.3
O=C(NNc1ccc([N+](=O)[O-])cc1)C1CC1c1ccccc1 (stereo unspecified)	29	98	?	-21	-0.3
COc1ccc(S(=O)(=O)Nc2cccc(S(=O)(=O)N3CCCCCC3)c2)cc1	-36	-3	-7%	14	5.1
CCCOc1cc(C)nc(-c2ccccc2O)n1	-25	-15	-4%	4	2.4
Cc1cc(C=O)c(C)n1-c1ccc2c(c1)OCO2	.	2	-3%	-4	-0.2
Cc1cccc(OCc2nnc(SCC(=O)N(C(C)C)C(C)C)n2Cc2ccco2)c1C	-34	-10	4%	-17	12
COc1ccccc1NS(=O)(=O)c1cc2c(cc1C)NC(=O)CO2	.	-3	.	.	1.2
CN1C(=O)N(C)C(=O)C2(Cc3c(ccc4ccccc34)N(C)C2)C1=O	-21	-2	7%	17	-0.1
CC(CNC(=O)C1CCCN(S(=O)(=O)N2CCOCC2)C1)c1ccccc1 (stereo unspecified)	.	-3	.	.	-1.2
CCOC(=O)c1sc(NC(=O)CSc2nnnn2-c2ccc(C)c(C)c2)nc1C	-41	12	-11%	-7	-1.7
CS(=O)(=O)N(CC(=O)N/N=C/c1cccs1)c1cccc(Cl)c1Cl	-17	-4	1%	1	-9.8
COc1cc(Cl)c(C)cc1NC(=O)[C@@H]1CCCN1C(=O)c1cccs1	-4	0	2%	-9	1.1
CCNc1ccc(C(=O)OCC(=O)N2c3ccccc3NC(=O)C2(C)C)cc1[N+](=O)[O-]	-30	69	1%	6	-0.7
CCCOc1ccc(N2C(=O)CC(N3CCN(CCN=CC4C(=O)CC(C)(C)CC4=O)CC3)C2=O)cc1 (stereo unspecified)	.	-1	-1%	-1	1.0
O=C(NC1CCCCC1)N1CCCCCC1	-23	-9	-9%	3	-1.7	Arbovirus inh repeat=0
Cc1ccnc(N/C=C(/NC(=O)c2ccccc2)C(=O)N/N=C\c2ccc(Cl)cc2)n1	.	-6	3%	.	-0.4
CCOc1ccc(-n2c(SCC(N)=O)nc3sc4c(c3c2=O)CCN(C)C4)cc1	.	-5	-12%	.	1.7
COc1ccc(C2C3=C(CCCC3=O)Nc3nc(C(F)(F)F)nn32)c(OC)c1OC (stereo unspecified)	-9	8	-4%	14	0.9
Cn1cccc1Cc1nnc(SCC(=O)NC2CCCC2)n1-c1ccc(F)cc1	-12	-6	-7%	-9	1.5	Arbovirus inh repeat=-6
CCSc1c(-c2ccccc2)nc2c(C)cccc2c1C(=O)O	-42	10	9%	9	.
CCN(CC(=O)Nc1ccccc1C(F)(F)F)C(=O)CCSc1ccc(F)cc1	.	-15	.	.	0.7
CSc1cccc(NC(=O)N2CCN(C)CC2)c1	.	-7	0%	.	0.9
COc1cc2ncc(S(=O)(=O)c3ccccc3)c(N3CCCC(C)C3)c2cc1OC (stereo unspecified)	.	8	.	.	6.6
CCN(CC)C(=O)C(=O)c1cn(CC(=O)NCC2CCCO2)c2ccccc12 (stereo unspecified)	.	-4	6%	6	0.8
C/C(=N\NC(=O)C1CC1)c1ccc(C)c(C)c1	.	-5	.	.	-6.0
COc1ccc(-c2cc(C(F)(F)F)nc(NCc3ccco3)n2)cc1OC	-24	-4	-4%	1	-0.1
COc1ccc(Br)cc1CNC(=O)C1CCC(=O)N1C(C)C (stereo unspecified)	-47	-1	-4%	1	1.2	Arbovirus inh repeat=-2
Cc1cnc(C(=O)OC(C)C(=O)c2c(C)[nH]c3ccccc23)cn1 (stereo unspecified)	.	-6	.	.	3.5
COc1ccc(OC)c(/C=C/C(=O)OCC(=O)Nc2ccc(Cl)c(S(=O)(=O)N(C)C)c2)c1	.	64	53%	1	1.6
CCOc1ccc(-c2nnc(SCC(=O)N3CCOCC3)o2)cc1	-24	93	3%	-2	1.0
COc1cc(CN2CCN(Cc3ccc(C)cc3)CC2)c([N+](=O)[O-])cc1OC	.	-2	7%	12	-3.1
COCCCN1C(=O)c2ccc(C(=O)OCC(=O)N3CCN(c4ccccc4)CC3)cc2C1=O	.	-6	.	.	1.0
CC1(C)CC2CC(C)(CN2C(=S)NC(=O)c2ccccc2Cl)C1 (stereo unspecified)	-16	35	?	-17	3.9
CCc1nn(C(CC)C(=O)NCCCc2ccccc2)c(=O)c2cc3occc3n12 (stereo unspecified)	.	-1	.	.	5.2
O=C(NCc1cccs1)C(=O)c1cn(CC(=O)N2CCOCC2)c2ccccc12	.	-9	7%	1	-0.2
Cc1ccc2nc(SCC(=O)NCc3ccco3)nc(=O)n2c1	.	-1	.	.	-4.5
COc1ccc(-n2nc(C(=O)NCC(=O)NC3CCCC(C)C3C)c3ccccc3c2=O)cc1 (stereo unspecified)	.	5	.	.	1.1
O=C(OCC#CCSc1nnc(-c2ccccc2)o1)c1cccs1	-3	100	?	4	13
O=C(COC(=O)CNC(=O)c1ccc(F)cc1)Nc1cccc(S(=O)(=O)N2CCCC2)c1	.	-1	-7%	0	-2.3
O=C(Cn1cc([N+](=O)[O-])cn1)NCC1CCCO1 (stereo unspecified)	-32	6	0%	-2	0.9
CC(Nc1nc(=S)nc(Nc2ccc(F)cc2)[nH]1)c1ccccc1 (stereo unspecified)	.	8	.	.	2.3
Cc1ccc[n+](C(C)C(=O)c2ccc(Cl)cc2)c1 (stereo unspecified)	.	0	.	.	1.0
COC(=O)c1sccc1NC(=O)CC1C(=O)NCCN1C(=O)Nc1ccccc1 (stereo unspecified)	.	-2	-5%	.	-0.1
Nc1nc(SCCO)[nH]c(=O)c1NC(=O)c1ccc(Br)o1	.	-1	.	.	1.6
Cc1nnc2sc(-c3ccc(-c4ccc(Cl)c(C(F)(F)F)c4)o3)nn12	.	5	12%	.	1.7
O=C(N/N=C/c1ccccc1O)NC12CC3CC(CC(C3)C1)C2	.	100	.	.	-1.1
CCN1CCCC1CNC(=O)CCNC(=O)c1cc(OC)c(OC)c(OC)c1 (stereo unspecified)	-48	-17	-5%	4	-1.1
CC(C)CC(=O)NC(=S)Nc1nc(-c2cccc3ccccc23)cs1	-16	11	-9%	-15	2.0

Ordered by SMILES length (highest first): part of the list above
SMILES	YopH inh	Mtb bLac sens	Mtb H37Rv	Arbovirus inh	RecA splice inh	others
O=C(NCc1cccs1)C(=O)c1cn(CC(=O)N2CCOCC2)c2ccccc12	.	-9	7%	1	-0.2
COC(=O)c1sccc1NC(=O)CC1C(=O)NCCN1C(=O)Nc1ccccc1 (stereo unspecified)	.	-2	-5%	.	-0.1
CC(C)CC(=O)NC(=S)Nc1nc(-c2cccc3ccccc23)cs1	-16	11	-9%	-15	2.0
O=C(N/N=C/c1ccccc1O)NC12CC3CC(CC(C3)C1)C2	.	100	.	.	-1.1
Cc1ccc2nc(SCC(=O)NCc3ccco3)nc(=O)n2c1	.	-1	.	.	-4.5
Cc1ccc[n+](C(C)C(=O)c2ccc(Cl)cc2)c1 (stereo unspecified)	.	0	.	.	1.0

(listing goes on)
SMILES	YopH inh	Mtb bLac sens	Mtb H37Rv	Arbovirus inh	RecA splice inh	others
CC(C)(C)c1ccc(C(=O)N2CCCN(c3ccc([N+](=O)[O-])cn3)CC2)cc1	.	-4	6%	.	-0.3
COc1cc(/C=N/n2cnnc2)ccc1OCC(=O)N1CCOCC1	-24	-8	2%	10	-2.5	Arbovirus inh repeat=2
Cn1c(CNC(=O)C(Cc2ccccc2)NC(=O)c2ccccc2)cc(=O)n(C)c1=O (stereo unspecified)	.	-1	.	.	2.6
COC(=O)C[C@](O)(CCCC(C)(C)O)C(=O)O[C@@H]1C(OC)=C[C@]23CCCN2CCc2cc4c(cc2[C@H]13)OCO4	.	-2	6%	.	-8.7
Cc1oc(S(=O)(=O)N2CCOCC2)cc1C(=O)Nc1ccc(F)cc1	.	-1	-15%	.	-0.5
CC1CC(c2ccccc2)n2nc(NC(=O)CCc3ccccc3)nc2N1 (stereo unspecified)	-34	-10	10%	1	2.5
NC(=O)CSc1nc2ccccc2nc1SCC(N)=O	.	-9	-5%	2	-0.5
CCC(C)(C)NC(=O)C(c1ccncc1)N(C(=O)c1sc(C)nc1C)c1ccc(F)cc1 (stereo unspecified)	.	0	0%	5	-0.7
Cc1ccc(C(=O)COC(=O)c2n[nH]c(=O)c3ccccc23)cc1	0	-1	-4%	2	-2.4
CC(=O)c1ccc(NC(=O)CCCN2C(=O)/C(=C/C(C)=C/c3ccccc3)SC2=S)cc1	-15	12	22%	-5	-0.6
CC(C)(CNC(=O)c1ccc([N+](=O)[O-])c(Cl)c1)CNC(=O)c1ccc([N+](=O)[O-])c(Cl)c1	-37	99	79%	-19	21
Cc1nn2c(NCCN(C)C)c3c(nc2c1-c1ccccc1)CCCC3	.	100	-2%	.	-1.6
O=C(NNC(=S)NC(=O)c1ccc(Br)cc1)c1cccc([N+](=O)[O-])c1	.	95	.	.	3.6
Cc1cc(C)n2nc(SCc3ncc(-c4ccccc4)o3)nc2n1	.	-9	-10%	10	-0.1
CN1Cc2c(N3CCOCC3)nc3sc(C(=O)c4ccccc4)c(N)c3c2CC1(C)C	.	-8	8%	.	-2.8
CCOc1cc(/C=N/NC(=O)c2nn(C)cc2Br)ccc1OCc1ccccc1Cl	-22	-7	10%	-2	0.5
O=C(Nc1nc2ccccc2s1)c1ccc(Cl)s1	-32	17	4%	4	.	Arbovirus inh repeat=1
CC(=O)N1CCc2cc(S(=O)(=O)Nc3ccccc3N3CCN(C)CC3)ccc21	-50	4	-1%	1	0.7	Arbovirus inh repeat=4
CCOC(=O)c1oc2ccccc2c1NC(=O)c1cccs1	-29	.	11%	-2	-0.6
COc1cc(C(F)(F)F)c(C(=O)N(C)Cc2ccc(Cl)c(Cl)c2)cn1	.	-2	3%	.	9.1
CC(CSc1nc2ccccc2s1)Cn1c(N2CCCC2)nc2c1c(=O)[nH]c(=O)n2C (stereo unspecified)	-5	9	2%	0	1.6
COc1cccc(CNC(=O)CN2C(=O)CC(c3ccccc3)=Nc3ccccc32)c1	.	0	-1%	-2	0.5
Cc1ccc(CNC(=O)C2CCCN2S(=O)(=O)c2ccc(F)cc2)cc1 (stereo unspecified)	.	2	.	.	-0.2
O=C(CCn1c(=S)oc2ccccc21)Nc1ccc2c(c1)OCCO2	-43	-3	5%	11	-0.4
O=C(Cn1cccc1C(=O)c1ccccc1)NCc1ccccn1	-20	-2	-10%	5	-0.7
Cn1c(SCc2c(F)cccc2Cl)nnc1-c1cnccn1	-17	-19	-6%	5	-1.5	Arbovirus inh repeat=-3
Cc1ccc2nc(SCC(=O)Nc3ccc(Br)cc3)nc(=O)n2c1	.	2	.	.	-0.1
Cc1ccccc1Cn1c(Cc2ccccc2)nc2ccccc21	-39	4	-1%	-29	1.5
CCOC(=O)c1c(NC(=O)C[n+]2ccccc2)sc2c1CCCC2	.	-10	3%	-4	0.3
O=C(CCn1c(=O)oc2ccccc21)N(Cc1ccccc1)c1ccccn1	36	6	-3%	2	5.2
CCOC(=O)c1c(NC(=O)COC(=O)c2nccnc2N)sc(C(=O)N(C)C)c1C	.	2	.	.	-2.1

A portion of the library (hit frequency here may not be typical).
